Bioassay records as filed in PubChem BioAssay.
PINK1 modulator: modulators of PINK1 expression | PINK1 immunofluorescence, high-content cytometry, 24 h | Potency, µM (doses to about 76.6 µM), for inactives: at the top dose activation (PINK1 increase), actives largely listed as activators | 410,000 tested, 0.2% active; active = well fitted activation curve with a large enough effect; inconclusive = small, poorly fitted or top-dose-only effect; inactive = flat fitted curve, though single readings scatter; cell line not stated here;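 note: potency is the fitted concentration of half-maximal effect; % of control where 0% means no effect; nearly all actives have a fitted effect of over 65% in size; a mitochondrial uncoupler was the plate control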
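Fluorescence from anti-PINK1 antibody, together with nuclear and cell stains, was scanned on a laser-scanning cytometer. Before staining, stable-line cells were incubated 24 hours with compounds at 5 concentrations; primary antibody 12 h at 10 degrees C.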
Sfp inh: Sfp phosphopantetheinyl transferase inhibition; Q9F4F7; Biochemical Sfp PPTase activity, qHTS; Potency, µM, for inactives: max response, negative = inhibition, actives largely listed as inhibitors; 310,000 tested, 3.5% active; AID 1490; active = well fitted inhibition curve with a large enough effect; inconclusive = small, poorly fitted or top-dose-only effect, or another doubt; inactive = no such curve, though single readings can be large or run the other way;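 note: the enzyme is Sfp with the accession as filed and its product quenches rhodamine fluorescence; potency is the fitted concentration of half-maximal effect; 0% = enzyme reaction without inhibitor and -100% = no enzyme wells; top concentration of the series not given in the record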
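Fluorescence-quenching assay with 15 nM Sfp, 5 uM rhodamine-CoA and 12.5 uM BHQ-2-labelled ybbR peptide in pH 7.6 Hepes/MgCl2 buffer. Enzyme was pre-incubated with compound for 15 min at room temperature. Rate was taken from the 30-min fluorescence change (525/598 nm).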
TRPML1 ag: agonists of human TRPML1 channel | TRPML1-expressing cells, Ca2+ dye fluorescence, FDSS; host cell line not named in the record; reference of the full effect not given here | activation, % (no concentration beside the values) | Q9GZU1 | AID 624414 | 410,000 tested, 0.12% active; in the data active = activation above about 50%; inconclusive = about 30% to 50%; inactive = below about 30%; note: 0% is about no effect; the text of the record puts the active cut at 80%
Target sequence (Q9GZU1 whole entry, looked up): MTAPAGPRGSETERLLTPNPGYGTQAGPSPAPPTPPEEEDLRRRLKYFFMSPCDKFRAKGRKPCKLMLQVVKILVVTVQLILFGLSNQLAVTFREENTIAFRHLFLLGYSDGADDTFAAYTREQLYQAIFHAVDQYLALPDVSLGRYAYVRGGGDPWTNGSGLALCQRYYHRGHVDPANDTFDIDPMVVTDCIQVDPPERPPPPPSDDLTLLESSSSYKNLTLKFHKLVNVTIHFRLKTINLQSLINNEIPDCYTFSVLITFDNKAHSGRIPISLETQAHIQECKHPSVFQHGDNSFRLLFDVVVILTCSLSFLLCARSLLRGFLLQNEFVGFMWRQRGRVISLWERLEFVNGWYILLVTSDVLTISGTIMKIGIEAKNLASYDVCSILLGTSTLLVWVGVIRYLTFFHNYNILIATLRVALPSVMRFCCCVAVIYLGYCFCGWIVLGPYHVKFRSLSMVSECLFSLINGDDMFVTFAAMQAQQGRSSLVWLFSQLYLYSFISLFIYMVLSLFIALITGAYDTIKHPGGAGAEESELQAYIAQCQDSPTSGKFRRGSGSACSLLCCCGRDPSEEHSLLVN
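Cells: TRPML1-DL, 1X Tet inducer, ~16 h at 37 degrees C/5% CO2. Dye: ABD Ca8 no-wash + quencher, 45-90 min RT. Read: 10 s baseline, compound add, 110 s agonist phase; 54-4 EC80 (4uM final), 110 s antagonist phase.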
TRPML1 blocker: blocks the human TRPML1 channel; Q9GZU1; TRPML1-inducible cells, Ca2+ dye fluorescence, FDSS; active compounds read low; inhibition of EC80 agonist-evoked calcium signal; activity change, negative = inhibition, % (concentration not given with the values); 390,000 tested, 0.02% active; AID 624415; in the data active means activity change below about -50%; inconclusive means about -30% to -50%; inactive means above about -30%;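 note: stimulus is agonist 54-4 at its EC80 concentration; % is set by controls: 0 for no effect and ±100 for the full control effect; the text of the record puts the active cut at -80%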
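Calcium fluorescence in TRPML1-DL cells induced overnight with Tet: a 110 s read after compound pin addition, then a 110 s antagonist read after challenge with 54-4 at 4 uM final (EC80).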
Menin MLL FP FL: inhibitors of human menin-MLL interaction, wild-type MLL peptide; Fluorescence polarization, fluorescein-MLL peptide displacement from menin; FP activity change, % at 61.4 µM; 290,000 tested, under 10 active; AID 1766; inconclusive = falling polarisation curve, or a change in total fluorescence; inactive = total fluorescence flat and polarisation flat or rising; no compound was filed as active; the % refers to the polarisation; negative = inhibition;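 note: % of control where 0% means no effect; inhibitors lower the polarisation; unlabelled MLL peptide was the positive control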
ClpP mod: qHTS Assay for Activators of ClpP | ATP-dependent Clp protease proteolytic subunit (Bacillus subtilis (strain 168)), P80244 | purified B. subtilis ClpP, FRET peptide cleavage, 20 min | Potency, µM (series often up to 57.5 µM), inactives show at the top dose activity change, negative = active | 340,000 tested, 1.9% active | AID 651965, 2013; active = well fitted falling curve with a large enough effect; inconclusive = small, poorly fitted or top-dose-only effect; inactive = no such curve, though single readings can be large or run the other way; note: potency is the fitted concentration of half-maximal effect; the source files actives as falling curves though it sought activators and does not explain the sign; nearly all actives have a fitted effect of over 65% in size; many hits overshoot -100%
Target sequence (P80244 whole entry, looked up): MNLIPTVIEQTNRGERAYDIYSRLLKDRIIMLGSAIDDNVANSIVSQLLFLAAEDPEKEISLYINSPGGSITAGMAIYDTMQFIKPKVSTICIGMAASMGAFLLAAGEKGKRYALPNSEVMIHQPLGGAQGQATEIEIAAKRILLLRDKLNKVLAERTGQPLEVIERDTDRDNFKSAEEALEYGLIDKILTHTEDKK
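Purified B. subtilis ClpP, 10 microg/mL final in Tris/HCl pH8 with KCl, BSA, glycerol and Tween-20, cleaved an Abz/nitrotyrosine-quenched decapeptide. Fluorescence (ex 320, em 430) was read at 0 and 20 min at room temperature. Delta was normalized to 5.8 microM ADEP and DMSO/no-enzyme controls.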
TRPV1 potentiator: enhances activation of the human vanilloid receptor TRPV1. Q8NER1. TRPV1-expressing cells, Fluo-8 calcium influx, capsaicin EC20 potentiation; host cell line not named in the record; control for the full effect not named in the record. potentiation, % at 8.33 µM. 320,000 tested, 0.02% active. AID 540277; active means potentiation above 80%; inconclusive means 30% to 80%; inactive means below 30%; note: 0% is about no effect
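TRPV1-expressing cells were cultured overnight at 35.5C and loaded with Fluo-8 calcium dye for 40 to 90 min at room temperature. After a 10 s baseline, compound was added and calcium influx was read kinetically for 3 min (ex 480/em 520 nm).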
Starred values were filed as active, the others as inactive; [ ] = dose if it differs, or a comment.

What do the screens show for `COc1ccc(N2CCN(Cc3cc(=O)oc4cc(C)c(Cl)c(C)c34)CC2)cc1`?
PINK1 modulator: -0.6%; Sfp inh: 18%; TRPML1 ag: -0.6; TRPML1 blocker: 7; Menin MLL FP FL: 0.3; ClpP mod: 1.5%; TRPV1 potentiator: 4

How did O=c1c2cccc3c(N4CCOCC4)ccc(c32)c2nc3ccccc3n12 do in these assays?
Sfp inh: 3%; Menin MLL FP FL: inconclusive; TRPV1 potentiator: 30

Results for O=C(CN1C(=O)C2(SCC(=O)N2c2ccc(F)c(F)c2)c2ccccc21)NCCc1ccccc1 (stereo not given) ?
PINK1 modulator: -4.5%; TRPML1 ag: 0.8; TRPML1 blocker: 59; ClpP mod: -0.7%

How did COC(=O)c1c(-c2ccc(OC)cc2)sc2ccc(OC)cc12 do in these assays?
PINK1 modulator: 1.2%; TRPML1 ag: 0.5; TRPML1 blocker: 11; ClpP mod: inconclusive

What do the screens show for `O=C(NCc1nc2ccccc2[nH]1)C1=C[C@H](c2ccc3c(c2)OCO3)C[C@H](OCCCCO)O1`?
PINK1 modulator: -0.4%; Sfp inh: 2%; TRPML1 ag: 0.0; TRPML1 blocker: -4; Menin MLL FP FL: inconclusive; ClpP mod: -9.7%; TRPV1 potentiator: -13

Results for CCCCC(C(=O)NC1CCCC1)N(Cc1ccccc1)C(=O)c1snc(C(N)=O)c1N (stereo not given) ?
PINK1 modulator: -1.4%; Sfp inh: -3%; TRPML1 ag: 2.9; TRPML1 blocker: 32; Menin MLL FP FL: -0.5; TRPV1 potentiator: -12

Results for COc1ccc(C(=O)NCCn2cc(SCC(=O)Nc3ccc(C)cc3)c3ccccc32)cc1 ?
PINK1 modulator: 1.4%; TRPML1 ag: 1.7; TRPML1 blocker: 0; ClpP mod: 0.8%

What do the screens show for `O=C(CC[C@H]1O[C@@H](n2cnc3c(NC(=O)c4ccccc4)ncnc32)[C@H](O)[C@@H]1O)NCc1ccc(OC(F)(F)F)cc1`?
PINK1 modulator: 4.4%; TRPML1 ag: 1.5; TRPML1 blocker: -21; ClpP mod: 1.2%

Results for COc1ccc(OC)c2[nH]c(=O)c(CCNC(=O)c3cccs3)cc12 ?
PINK1 modulator: -0.3%; Sfp inh: 11%; TRPML1 ag: 0.6; TRPML1 blocker: -5; Menin MLL FP FL: 2.6; ClpP mod: 2.1%; TRPV1 potentiator: 9

Results for CCOC(=O)c1ccc(N2C(=O)C3C(/C=C/c4ccccc4)OC4(C(=O)c5ccccc5C4=O)C3C2=O)cc1 (stereo not given) ?
PINK1 modulator: 6.3%; Sfp inh: 5%; TRPML1 ag: 0.8; TRPML1 blocker: -3; ClpP mod: -0.8%; TRPV1 potentiator: 0

Results for CCOC(=O)c1ccc(NC(=O)CSc2nc3sc(C(=O)O)c(C)c3c(=O)[nH]2)cc1 ?
PINK1 modulator: -1.5%; Sfp inh: 21%; TRPML1 ag: 0.5; TRPML1 blocker: -3; Menin MLL FP FL: 2.0; TRPV1 potentiator: 12

How did CCN(CC)S(=O)(=O)c1ccc(OC)c(NC(=O)CSc2cc(Cl)ccc2Cl)c1 do in these assays?
PINK1 modulator: -2.0%; Sfp inh: 2%; TRPML1 ag: -0.4; TRPML1 blocker: inconclusive; Menin MLL FP FL: 6.5; ClpP mod: -2.5%; TRPV1 potentiator: 1

Results for CC1(CC(=O)N/N=C/c2ccc(OCc3ccc(Cl)cc3Cl)cc2)OCCCO1 ?
PINK1 modulator: -2.0%; Sfp inh: -25%; TRPML1 ag: 0.6; TRPML1 blocker: 54; Menin MLL FP FL: 5.2; ClpP mod: -0.2%; TRPV1 potentiator: -8

What do the screens show for `O=c1[nH]c2ccccc2nc1/C=C/c1ccccc1`?
PINK1 modulator: 13%; Sfp inh: 10%; TRPML1 ag: 2.1; TRPML1 blocker: -5; Menin MLL FP FL: -4.9; TRPV1 potentiator: -4

How did CCCN(CCC)Cc1c(C(=O)N/N=C/c2ccncc2)nnn1-c1nonc1N do in these assays?
PINK1 modulator: 4.1%; Sfp inh: 13%; Menin MLL FP FL: -5.2; ClpP mod: 0.7%; TRPV1 potentiator: -11

The closing two compounds of the section above come first, to join the parts.
What do the screens show for `O=c1[nH]c2ccccc2nc1/C=C/c1ccccc1`?
PINK1 modulator: 13%; Sfp inh: 10%; TRPML1 ag: 2.1; TRPML1 blocker: -5; Menin MLL FP FL: -4.9; TRPV1 potentiator: -4

How did CCCN(CCC)Cc1c(C(=O)N/N=C/c2ccncc2)nnn1-c1nonc1N do in these assays?
PINK1 modulator: 4.1%; Sfp inh: 13%; Menin MLL FP FL: -5.2; ClpP mod: 0.7%; TRPV1 potentiator: -11

How did COc1ccc(CCNC(=O)C2CC(=O)N(c3ccc(C)cc3)C2)cc1 (stereo not given) do in these assays?
PINK1 modulator: -2.4%; Sfp inh: -1%; TRPML1 ag: 0.2; TRPML1 blocker: 8; Menin MLL FP FL: 4.2; TRPV1 potentiator: -3

How did CCCn1nc(C(=O)NCCN2CCOCC2)c2ccccc2c1=O do in these assays?
PINK1 modulator: 0.5%; Sfp inh: -1%; TRPML1 ag: 0.9; TRPML1 blocker: -8; Menin MLL FP FL: 3.1; ClpP mod: -3.4%; TRPV1 potentiator: -6

Results for S=C(c1ccc2c(c1)OCO2)N1CCCCCC1 ?
PINK1 modulator: 11%[38.3 µM]; Sfp inh: -29%; TRPML1 ag: 1.0; TRPML1 blocker: -12; Menin MLL FP FL: 3.1; ClpP mod: -1.7%; TRPV1 potentiator: 14

How did COc1ccc(C(=O)N2CCCCC2)cc1S(=O)(=O)Nc1ccccc1 do in these assays?
Sfp inh: -4%; TRPML1 ag: 0.3; TRPML1 blocker: -8; Menin MLL FP FL: 6.9; ClpP mod: -0.1%

What do the screens show for `COc1ccc(N=Cc2cccc(C)c2O)cc1Cl`?
PINK1 modulator: -0.6%; Sfp inh: 7%; TRPML1 ag: -1.2; TRPML1 blocker: 6; Menin MLL FP FL: 0.5; ClpP mod: 1.0%; TRPV1 potentiator: -18

How did CC(C)=CCCC1=CCC(/C=N/NC(N)=O)C(C)C1 (stereo not given) do in these assays?
PINK1 modulator: 0.8%; Sfp inh: -3%; TRPML1 ag: 2.9; TRPML1 blocker: 8; Menin MLL FP FL: 1.6; ClpP mod: -3.2%; TRPV1 potentiator: -1

Results for COc1ccc(C(=O)NC(NC(=O)c2ccc(OC)cc2)c2ccccc2F)cc1 ?
PINK1 modulator: 6.1%; Sfp inh: 15%; TRPML1 ag: 0.1; TRPML1 blocker: -14; Menin MLL FP FL: -7.4; TRPV1 potentiator: 9

Results for CC(C)CC1=NN2C(=N)/C(=C\c3coc4ccccc4c3=O)C(=O)N=C2S1 ?
PINK1 modulator: 7.2%; Sfp inh: -20%; TRPML1 ag: 69*; TRPML1 blocker: -19; Menin MLL FP FL: inconclusive; ClpP mod: 3.9%; TRPV1 potentiator: -11

Results for CC(C)(C)c1[nH]nc2c1C(Cc1ccccc1)C(C#N)=C(N)O2 (stereo not given) ?
PINK1 modulator: -2.3%; Sfp inh: 8%; TRPML1 ag: -0.5; TRPML1 blocker: 0; Menin MLL FP FL: -0.7; ClpP mod: -1.7%; TRPV1 potentiator: -11

Results for CC(C)c1cccc(C(C)C)c1NC(=O)Cn1c(=O)cnc2ccccc21 ?
PINK1 modulator: 0.6%; Sfp inh: -15%; TRPML1 ag: 0.5; TRPML1 blocker: 3; Menin MLL FP FL: 6.4; ClpP mod: inconclusive; TRPV1 potentiator: -3

Results for O=C(Cc1cccc2c(=O)cc(-c3ccccc3)oc12)OCCN1CCOCC1 ?
PINK1 modulator: 0.6%; TRPML1 ag: -0.9; ClpP mod: -6.0%

Results for CC(C)Oc1cccc(C(=O)NC(=S)Nc2cccc(C(F)(F)F)c2)c1 ?
PINK1 modulator: inconclusive; Sfp inh: -14%; TRPML1 ag: 0.8; TRPML1 blocker: 38; Menin MLL FP FL: 0.1; ClpP mod: 3.4%; TRPV1 potentiator: 6

Results for O=C(CSc1ncn[nH]1)N1CCOCC1 ?
PINK1 modulator: -0.5%; Sfp inh: -9%; TRPML1 ag: -0.3; TRPML1 blocker: 4; Menin MLL FP FL: -0.9; ClpP mod: 2.1%; TRPV1 potentiator: -3

What do the screens show for `Cc1cccc(NC(=O)C2CCN(c3ncnc4c3nc3n4CCCCC3)CC2)n1`?
PINK1 modulator: 0.1%; Sfp inh: 3%; TRPML1 ag: 1.3; TRPML1 blocker: -16; Menin MLL FP FL: -1.2; ClpP mod: -1.6%; TRPV1 potentiator: 3

How did Fc1ccccc1-n1cc(-c2ccccc2)[nH]c1=S do in these assays?
PINK1 modulator: 0.1%; Sfp inh: -23%; TRPML1 ag: 0.4; TRPML1 blocker: -3; Menin MLL FP FL: -1.7; ClpP mod: 0.9%; TRPV1 potentiator: -1

What do the screens show for `CC(C)Oc1ccc(CNC(=O)C2CCN(C(=O)N3CC(C)Oc4ccccc43)CC2)cc1` (stereo not given)?
PINK1 modulator: -1.9%; TRPML1 ag: 0.3; TRPML1 blocker: 19; ClpP mod: -1.8%

Results for CCC(CC)C(=O)OCc1cc(=O)n2nc(C3CCCCC3)sc2n1 ?
PINK1 modulator: 1.3%; TRPML1 ag: -0.6; TRPML1 blocker: 14; ClpP mod: -2.9%

Results for CCN(CC)C(=O)C(C)N(C#N)c1nc(NC(C)C)nc(NC(C)C)n1 (stereo not given) ?
PINK1 modulator: 17%[38.3 µM]; Sfp inh: 4%; TRPML1 ag: -1.1; TRPML1 blocker: -7; Menin MLL FP FL: 0.3; ClpP mod: -0.5%; TRPV1 potentiator: 0

Results for Oc1ccc(Cl)cc1C=NN1CCCCCC1 ?
PINK1 modulator: 12%; TRPML1 ag: 1.7; TRPML1 blocker: 15; ClpP mod: -0.7%

Results for CCOc1ccc(S(=O)(=O)NCc2ccc3c(c2)OCO3)cc1NC(C)=O ?
PINK1 modulator: 2.1%; Sfp inh: 18%; TRPML1 ag: -0.3; TRPML1 blocker: 15; Menin MLL FP FL: -6.8; ClpP mod: 0.4%; TRPV1 potentiator: 14

How did Cc1ccc(S(=O)(=O)N2CCC(=O)N(CCOCc3cccc(F)c3)CC2)cc1 do in these assays?
PINK1 modulator: -0.9%; Sfp inh: 0%; TRPML1 ag: -0.2; TRPML1 blocker: -14; Menin MLL FP FL: 1.8; ClpP mod: 0.6%; TRPV1 potentiator: -8

No enrichment for hits (roughly 4.4% active in at least one column).
